Bioassay records (PubChem BioAssay)
TRPML1 ag: qHTS for Agonists of the Human Mucolipin Transient Receptor Potential 1 (TRPML1); Mucolipin-1 (Homo sapiens), Q9GZU1; TRPML1-expressing cells, Ca2+ dye fluorescence, FDSS; host cell line not named in the record; reference of the full effect not given here; AID 624414, 2012; activation, % (test concentration not listed); 410,000 tested, 0.12% active; in the data active = activation above about 50%; inconclusive = about 30% to 50%; inactive = below about 30%; also: 0% is about no effect; the text of the record puts the active cut at 80%
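Calcium fluorescence on an FDSS kinetic reader gave the read-out. Tet-induced TRPML1-DL cells were plated overnight, dye-loaded (Ca8 with quencher, 45-90 min, room temperature, dark), then read 110 s after compound addition, and again 110 s after 4uM final 54-4 (EC80).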
PINK1 expr mod: A Quantitative High throughput Screen to Identify Chemical Modulators of PINK1 Expression | PINK1 immunofluorescence, high-content cytometry, 24 h | Potency, µM (top dose mostly 76.6 µM), inactives show at the highest dose activation (PINK1 increase), usual class: activators | 410,000 tested, 0.2% active; active = well fitted activation curve with a large enough effect; inconclusive = small, poorly fitted or top-dose-only effect; inactive = flat fitted curve, though single readings scatter; cell line not stated here;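 also: potency is read from the fitted curve at half-maximal effect; % of control where 0% means no effect; nearly all actives have a fitted effect of over 65% in size; a mitochondrial uncoupler was the plate control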
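Fluorescence from anti-PINK1 antibody, together with nuclear and cell stains, was scanned on a laser-scanning cytometer. Before staining, stable-line cells were incubated 24 hours with compounds at 5 concentrations; primary antibody 12 h at 10 degrees C.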
D2 agonist: Beta-Arrestin HTS for Positive Allosteric Modulators of the Human D2 Dopamine Receptor: Agonists; activation, % (concentration not given with the values); 360,000 tested, 0.084% active; D(2) dopamine receptor (Homo sapiens), P14416; DiscoveRx PathHunter D2 beta-arrestin, luminescence, 90 min; 100% = 57 uM dopamine signal; in the data active = activation above about 40%; inconclusive = about 15% to 40%; inactive = below about 15%; also: compound concentration not given in the record; the text of the record calls up to 30% inactive
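DiscoveRx PathHunter D2 beta-arrestin cells (2,100/well) attached overnight, then compound-stimulated 90 min at 37 C in HBSS/10 mM HEPES/0.1% Tween-20 buffer; beta-galactosidase complementation read by luminescence after 1 h at ambient temperature. Dopamine 57 uM final (EC100) as control.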
CtBP-E1A blk: qHTS Assay for Inhibitors of the CtBP/E1A Interaction; CtBP / adenovirus E1A interaction (AlphaScreen); AlphaScreen GST-E1A/His-CtBP binding, 1536-well; hits give low values; control for the full effect not named in the record; activity change, % (no concentration beside the values); 340,000 tested, 0.49% active; in the data active means activity change below about -65%; inconclusive means about -30% to -65%; inactive means above about -30%; also: % is scaled to controls: 0 for no effect and ±100 for the full control effect; compound concentration not given in the record
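Protein mix (5X: 125 nM each GST-E1A, His-CtBP) was incubated with pinned compound 2 h at 37 deg C in dark, in 50 mM Tris pH 8.0 buffer with 300 mM NaCl. Glutathione donor and nickel acceptor beads followed; AlphaScreen signal read after 1 h.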
TRPML1 blocker: qHTS for Inhibitors of the Human Mucolipin Transient Receptor Potential 1 (TRPML1). 390,000 tested, 0.02% active. AID 624415, 2012. activity change, negative = inhibition, % (concentration not given with the values). Mucolipin-1 (Homo sapiens), Q9GZU1. TRPML1-inducible cells, Ca2+ dye fluorescence, FDSS; hits give low values; inhibition of EC80 agonist-evoked calcium signal; in the data active means activity change below about -50%; inconclusive means about -30% to -50%; inactive means above about -30%;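 also: stimulus is agonist 54-4 at its EC80 concentration; % is scaled to controls: 0 for no effect and ±100 for the full control effect; compound concentration not given in the record; the text of the record puts the active cut at -80%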
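TRPML1-DL cells, Tet-induced overnight (~16 h, 37 °C) at 1,500 cells/well, were loaded with Ca8 no-wash dye plus quencher for 45-90 min at room temperature. Compounds were pinned during FDSS kinetic reading; agonist 54-4 at EC80 (4 uM final) then added.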
Six1-Eya2 blk: qHTS Assay for Inhibitors of the Six1/Eya2 Interaction. Homeobox protein SIX1 (Homo sapiens) + Protein phosphatase EYA2 (Homo sapiens), …. AlphaScreen GST-Six1/His-Eya2 binding, biochemical; hits give low values; control for the full effect not named in the record. activity change, % (concentration not given with the values). 360,000 tested, 0.56% active. AID 651725, 2012; in the data active = activity change below about -65%; inconclusive = about -30% to -65%; inactive = above about -30%; also: % is scaled to controls: 0 for no effect and ±100 for the full control effect
Target sequence (O00167 whole entry, looked up): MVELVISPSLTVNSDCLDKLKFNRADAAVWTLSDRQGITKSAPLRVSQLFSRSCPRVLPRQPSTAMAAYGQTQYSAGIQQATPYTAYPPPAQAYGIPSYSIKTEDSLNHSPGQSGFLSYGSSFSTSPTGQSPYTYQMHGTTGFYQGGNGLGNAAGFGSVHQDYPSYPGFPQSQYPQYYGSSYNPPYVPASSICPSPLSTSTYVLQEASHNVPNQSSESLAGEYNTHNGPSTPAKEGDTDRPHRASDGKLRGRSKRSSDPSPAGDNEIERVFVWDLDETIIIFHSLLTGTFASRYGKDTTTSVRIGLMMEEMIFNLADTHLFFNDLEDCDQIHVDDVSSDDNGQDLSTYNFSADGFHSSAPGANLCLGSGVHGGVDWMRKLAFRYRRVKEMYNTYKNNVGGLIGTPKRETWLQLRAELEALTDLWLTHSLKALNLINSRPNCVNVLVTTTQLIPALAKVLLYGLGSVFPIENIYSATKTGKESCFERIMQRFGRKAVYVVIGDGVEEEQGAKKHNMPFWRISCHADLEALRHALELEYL
Target sequence (Q15475 whole entry, looked up): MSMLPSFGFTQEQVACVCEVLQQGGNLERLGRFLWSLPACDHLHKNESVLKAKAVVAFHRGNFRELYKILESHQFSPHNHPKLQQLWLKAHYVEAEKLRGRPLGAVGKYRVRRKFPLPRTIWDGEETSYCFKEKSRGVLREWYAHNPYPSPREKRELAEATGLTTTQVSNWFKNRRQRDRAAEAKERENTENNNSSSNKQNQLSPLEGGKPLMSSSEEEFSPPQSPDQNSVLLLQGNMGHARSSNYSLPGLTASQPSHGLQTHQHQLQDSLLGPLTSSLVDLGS
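AlphaScreen with GST-Six1 and His-Eya2 (5X mix: 250 nM and 500 nM), glutathione donor and nickel acceptor beads; buffer 50 mM Tris pH 8.0, 300 mM NaCl, 1 mM TCEP; 1 h at 37 C in the dark.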
* hit, by the source's call; ? = inconclusive; . = not tested or not shown; & = joins results of further samples; [ ] = another dose, or the depositor's remark. An unsorted share of the library. About 1% of those tested had a hit in this group.

SMILES	TRPML1 ag	PINK1 expr mod	D2 agonist	CtBP-E1A blk	TRPML1 blocker	Six1-Eya2 blk
COC(=O)CCC(=O)NS(=O)(=O)c1ccc(N=NN2CCOCC2)cc1	0.1	2.1%	-7.4	.	-3	-1
O=C1NC(c2ccccc2)(C(F)(F)F)SC2=NCCCN12 (configuration not stated)	0.2	-4.5%[38.3 µM]	-0.5	9	2	-2
COc1c(Cl)cc(Cl)cc1CNCCO	-0.3	8.4%	-2.4	-5	-1	0
COc1ccccc1Nc1ncnc2ccc(C)cc12	-0.2	1.6%	-2.2	-1	-8	2
CC1Cc2ccccc2N1C(=O)COc1cccc(-n2cnnn2)c1 (configuration not stated)	0.5	1.4%	2.9	-3	-17	-2
COC(=O)Cn1cc(C(=O)OC)cc(Br)c1=O	-0.9	-1.4%	-4.0	0	-6	0
Cc1ccc(S(=O)(=O)N2CCN(C)CC2)cc1C	.	3.9%	2.1	.	.	0
COc1cccc(N2CC(NC(=O)c3cc4ccccc4o3)CC2=O)c1 (configuration not stated)	-0.3	-0.8%	.	.	-17	.
COc1cc(NC(=S)N2CCN(C/C=C/c3ccccc3)CC2)cc(OC)c1	-0.2	2.5%	-0.4	-17	-1	-22
O=C(NCC1CCCO1)c1ccc2c(c1)ncn2-c1cccc(F)c1 (configuration not stated)	-0.5	0.0%	-0.3	0	-7	-2
C/C(=N\OCC(=O)OCC(=O)N(C)c1ccccc1)c1ccc2c(c1)OCO2	-1.8	0.8%	-2.1	.	-2	-3
CC(C)N1CCN(c2ccncc2S(=O)(=O)N2CCN(C)CC2)CC1	0.5	1.7%	-6.7	-2	0	4
Cc1ccc(N(CC(=O)N2CCN(c3ccc(F)cc3)CC2)S(=O)(=O)c2c(C)noc2C)cc1	0.8&-0.5	2.3%&0.9%	-1.9	-1	-6&16	-8
COc1ccc(COc2ccsc2C(=O)Nc2ccc(Cl)cc2)cc1	7.0	13%[38.3 µM]	-0.9	8	44	9
COc1ccc(N2CCOCC2)c(NC(=O)c2cc3ccccc3o2)c1	4.8	1.8%	1.7	-9	39	-6
COc1ccc(/C=C/C(=O)N(C)CC(=O)Nc2cccc(F)c2)cc1S(=O)(=O)N1CCCCC1	0.4	8.9%	-6.4	-3	10	-9
Cc1ccc2nc(N3C(=O)C(O)=C(C(=O)c4ccco4)C3c3cccc(O)c3)sc2c1 (configuration not stated)	6.2	2.8%	-4.0	-6	8	-1
CCn1c(SCC(=O)NC2CCCC2)nc2c(c1=O)SCC2	1.1	-1.6%	0.8	-2	1	12
CCSc1ncc(Cl)c(C(=O)N(Cc2ccccc2)c2ccc(OC)cc2)n1	3.9	2.8%	.	.	60	.
Cc1cc(=O)[nH]c(SCC(=O)NCc2ccco2)n1	-0.5	0.1%	-3.1	-1	-6	-18

Given in markdown: entries from further up.
| smiles | TRPML1 ag | PINK1 expr mod | D2 agonist | CtBP-E1A blk | TRPML1 blocker | Six1-Eya2 blk |
| --- | --- | --- | --- | --- | --- | --- |
| COc1ccc(/C=C/C(=O)N(C)CC(=O)Nc2cccc(F)c2)cc1S(=O)(=O)N1CCCCC1 | 0.4 | 8.9% | -6.4 | -3 | 10 | -9 |
| C/C(=N\OCC(=O)OCC(=O)N(C)c1ccccc1)c1ccc2c(c1)OCO2 | -1.8 | 0.8% | -2.1 | . | -2 | -3 |
| CC(C)N1CCN(c2ccncc2S(=O)(=O)N2CCN(C)CC2)CC1 | 0.5 | 1.7% | -6.7 | -2 | 0 | 4 |

Continued:
SMILES	TRPML1 ag	PINK1 expr mod	D2 agonist	CtBP-E1A blk	TRPML1 blocker	Six1-Eya2 blk
COc1ccc(C(=O)N2CCCC(N3CCN(c4ccccc4OC)CC3)C2)c(OC)n1 (configuration not stated)	-0.6	3.8%	-0.3	4	2	0
CC12CCC(C[N+](C)(C)C1)C2(C)C (configuration not stated)	2.5	-0.3%	5.5	1	10	9
COc1cccc(NC(=O)/C(C#N)=C\c2cn(Cc3ccc(C)cc3)c3ccccc23)c1	0.2	5.2%	.	.	14	.
COc1ccc2c(c1)[nH]c1c(N3CCSCC3)ncnc12	1.2	-0.6%	?	-15	-1	-12
Clc1cccc(CN2CCN(Cc3ccco3)CC2)c1	-1.1	2.5%	2.2	9	-2	-7
COc1ccc(C)cc1NC(=O)C(Sc1nnc(-c2cccs2)o1)c1ccccc1 (configuration not stated)	-0.4	0.3%	-1.7	-4	2	-1
O=c1c2ccccc2ncn1Cc1ccc2c(c1)OCO2	-1.2	-0.7%	2.8	.	-4	0
COc1ccc(CNc2cc(C)nc3ncnn23)c(OC)c1	1.5	-1.1%[38.3 µM]	0.9	35	2	14
O=[N+]([O-])c1ccc(S(=O)(=O)NCC(c2ccc3c(c2)OCO3)N2CCOCC2)cc1 (configuration not stated)	-0.5	0.2%	-1.4	5	1	5
COc1c(C)cc(C(=O)C2CCCN(C(=O)/C=C/c3ccccn3)C2)cc1C (configuration not stated)	-0.3	-0.8%	-4.8	4	-21	8
C[C@@H]1CN([C@H](C)CO)C(=O)CCCn2nncc2CO[C@H]1CN(C)Cc1ccc2c(c1)OCO2	-0.3	1.2%	-11	5	15	-2
CCc1cccc(C)c1NC(=O)CN1C(=O)c2ccccc2Sc2ncccc21	0.1	3.1%	.	.	13	.
Cc1cccc(NS(=O)(=O)c2ccc(C)c(NS(=O)(=O)c3cccs3)c2)c1	1.4	1.3%	1.8	0	-6	15
CCOc1ccc(-n2c(=O)c3c4c(sc3n(CC(=O)NCc3ccco3)c2=O)CCC4)cc1	0.5	15%	-2.9	9	-16	10
Cc1occc1-c1nnc(SCC(=O)N(C)C)o1	0.4	?	2.0	1	0	-3
COC(=O)c1cc(OC(=O)c2ccc(=O)[nH]c2)cc(C(=O)OC)c1	1.0	0.6%	-4.2	2	4	3
C/C=C(\C)C(=O)N1CC2(CC(c3cccc(NC(=O)COc4ccc(Cl)cc4)c3)=NO2)C[C@@H]1C(N)=O (some centres not stated)	-0.7	0.5%	0.8	0	-2	9
Cc1ccc(C(=O)COC(=O)CCC(=O)NC2CCCCC2)cc1C	-1.5	-0.6%	-3.0	6	-12	3
CC(=O)Nc1ccc(OC(=O)CC2SC(=O)NC2=O)cc1 (configuration not stated)	-0.5	-0.6%	-3.3	-2	-14	2
COCCNc1ccc(N2C(=O)C3CCCCC3C2=O)cc1[N+](=O)[O-] (configuration not stated)	-0.8	1.9%	-1.8	0	-3	15
O=C(c1ccccc1Br)N1CCn2c1nc1ccccc12	0.2	1.6%	-6.3	4	-21	11
O=S(=O)(Nc1cccc(-n2cnnn2)c1)c1ccccc1	0.2	-1.3%	-3.6	.	9	10
O=C(NC1CCN(Cc2ccccc2)CC1)c1cccc(OC(F)F)c1	-0.3	-0.1%	-3.1	6	12	-1
CN(Cc1ccccc1)C(=O)COC(=O)C1=NNC(=O)CC1	-0.2	2.9%	-0.9	-9	-7	3
Cc1cc(C)c(/C=N/n2c(C)cc(C)c(C#N)c2=O)c(C)c1	0.2	8.9%	-2.6	-14	58	1
CCOC(=O)C1CCCN(c2c(C(=O)c3ccc(C)cc3)cnc3ccc(OCC)cc23)C1 (configuration not stated)	1.3	0.5%	.	.	8	.
O=[N+]([O-])c1ccc(S(=O)(=O)Nc2cccc(-c3ccc(N4CCCC4)nn3)c2)cc1	1.2	-0.7%	10	-12	-5	-26
CC(Oc1ccccc1)C(=O)OCC(=O)N1CC(=O)Nc2ccccc21 (configuration not stated)	-1.0	0.2%	-5.2	3	6	0
O=C(CSc1nnc(SCc2ccc(Cl)cc2)s1)N/N=C/c1ccc(C(=O)O)cc1	0.4	1.3%	-5.2	-10	19	-13
O=C(NCc1ccccn1)C12CC3CC(CC(C3)C1)C2	1.1	5.1%	4.9	-6	-13	1
CCCOc1ccccc1C(=O)Nc1ccc(-c2nc3ccc(C)cc3s2)cc1	1.9	2.4%	.	.	-1	.
COc1ccc(CCNC(=O)CN(c2cccc([N+](=O)[O-])c2)S(C)(=O)=O)cc1	0.0	-1.0%	-0.8	8	-10	9
CCc1ccc2oc(=O)cc(CN3CCN(c4ccc(F)cc4)CC3)c2c1	2.4	1.7%	-1.5	-2	13	-8
Cc1[nH]c(=O)[nH]c(=O)c1CSc1nnc([C@@H](NC(=O)OC(C)(C)C)C(C)C)o1	-0.6	-0.6%	0.7	-1	-5	7
CCC(=O)N1CCc2cc(Br)cc(S(=O)(=O)CCC(=O)Nc3ccccc3C)c21	-0.8	0.4%	.	.	0	.
COc1cccc(/C=N/NC(=O)CCC(=O)Nc2ccc(Br)cc2)c1	0.5	3.2%	-2.3	.	50	3
Cc1nn(C(C)C(=O)NC2CCC(C)CC2)c(=O)c2nn(-c3ccccc3)c(C)c12 (configuration not stated)	-0.9	-0.3%	-2.6	-11	-2	3
Cc1oc2ncn(CC(C)C)c(=O)c2c1C(=O)N1CCN(c2cccc(C(F)(F)F)c2)CC1	-0.9	0.3%	.	.	-17	.
CCCOC(=O)CSc1nnc(-c2ccc(Cl)cc2Cl)o1	3.5	-0.3%	0.6	27	1	37
O=S(=O)(c1ccccc1)N1CCN(c2nc3ccccc3s2)CC1	0.0	11%	-2.9	0	-8	3
COc1ccc(Br)cc1CNC(=O)C1CCN(S(=O)(=O)N2CCC(C)CC2)CC1	2.7	-2.2%	-2.6	-3	-9	14
O=C(Cc1ccccc1)NCCCN1CCN(CCCNC(=O)Cc2ccccc2)CC1	-0.8	8.2%[38.3 µM]	-1.4	-2	1	-2
Cn1c(=O)oc2cc(S(=O)(=O)N3CCC(C(=O)N4CCN(c5ccccc5F)CC4)CC3)ccc21	0.5	0.8%	.	.	-8	.
O=S(=O)(NCc1cccc(Br)c1)c1ccc(-c2cc(C(F)(F)F)on2)s1	1.1	8.4%	.	.	-9	.
CCOC(=O)Cn1c(C)c(C#N)c2ccccc21	0.6	0.7%	-0.1	9	-9	2
CC1CCN(C(=O)CN2C(=O)C(C)(C)Oc3ccc(C(=O)NC4CCCC4)cc32)CC1	-0.9	1.1%	0.5	7	2	6
CC1CCN(S(=O)(=O)c2ccc(Cl)cc2)CC1	0.3	-0.5%[38.3 µM]	-2.7	12	-9	12
CCC(C)[C@H](NC(=O)NCC1CCCO1)C(=O)OC (some centres not stated)	1.9	4.7%[38.3 µM]	-2.5	2	-9	4
Cc1ccc(OCCOc2cccc(Br)c2)c([N+](=O)[O-])n1	-0.7	4.0%	0.7	20	12	3
O=C(COC(=O)c1cccc(C(F)(F)F)c1)NCc1ccc(Cl)cc1	0.0	-1.6%	3.7	16	30	11
CNC(=O)c1[nH]cnc1C(=O)N[C@@H](CC(C)C)C(=O)OC(C)(C)C	-0.8	3.9%	-2.0	2	12	-4
